Vaccinia mCherry: inhibitors of vaccinia virus infection (mCherry reporter signal) | Vaccinia virus mCherry reporter infection, fluorescence; about a quarter of the inactives have no number | Potency, µM (highest dose often 36.5 µM), without a hit: at the top dose activity change, negative = inhibition, usual class: inhibitors | 310,000 compounds, 0.63% hits; active = well fitted inhibition curve with a large enough effect; inconclusive = small, poorly fitted or top-dose-only effect; inactive = no such curve, though single readings can be large or run the other way; tested in A549 cells; note: nearly all actives have a fitted effect of over 35% in size; inactives centre near -10
VACV Venus inh: vaccinia inhibition (Venus reporter); Vaccinia virus Venus reporter expression, fluorescence; Potency, µM (series often up to 36.5 µM), for inactives: top-dose activity change, negative = inhibition, hits mostly inhibitors; 330,000 compounds, 0.46% hits; active means well fitted inhibition curve with a large enough effect; inconclusive means small, poorly fitted or top-dose-only effect; inactive means no such curve, though single readings can be large or run the other way; tested in A549 cells; note: nearly all actives have a fitted effect of over 30% in size; inactives centre near -10
Active calls of the source: *; i = inactive; ? = inconclusive; / = no result given; [ ] = dose if it differs, or a comment. % is set by controls: 0 for no effect and ±100 for the full control effect; potency is the fitted concentration of half-maximal effect. Rows are unselected. Share with any hit: about 0.87%.

SMILES	Vaccinia mCherry	VACV Venus inh
CSc1nc(-c2ccccc2)nc(N2CCN(C)CC2)c1C(C)=O	/	-23%
CCOC(=O)[C@]12CCCC=C1N(Cc1ccc(Cl)cc1Cl)C(=O)[C@H](CC(=O)N1CCN(C(=O)c3ccco3)CC1)C2	-8%	-22%
C=CCSc1nc2c(cnn2-c2ccccc2)c(=O)n1N	-1%	-12%
COc1cc(=O)n2c(n1)SCCC2	/	-9%
O=C(Cn1c(=O)oc2ccccc21)NCC1COc2ccccc2O1 (centres undefined)	i	3%
CCOC(=O)c1ccccc1NC(=O)CSc1nnc(CC)n2c1cc1occc12	5%	1%
Cc1ccccc1C1CC(=O)c2ccccc2C1C (centres undefined)	i	-14%
O=C(NCc1ccccc1Br)c1ccc(-n2cnc3cccnc32)cc1	-15%	-5%
Cc1ccsc1/C=C1\CCc2ccccc2C1=O	-18%	-24%
CC(=O)Nc1ccc(-c2ccnc3c2CC(C(=O)NCC2CCOCC2)O3)cc1 (centres undefined)	-21%	-20%
CCOC(=O)c1c(CC(C)C)csc1NC(=O)COC(=O)c1cnc(C)cn1	-6%	-9%
CN(Cc1ccccc1)C(=O)Cn1c(=O)oc2cc(S(=O)(=O)NCc3ccccc3)ccc21	?	?
Cc1ccc(N=Nc2c(O)[nH]c(=O)[nH]c2=O)cc1S(=O)(=O)Nc1ccc(Br)cc1	?	-6%
O=C(O)c1ccc(N=NNc2cccc([N+](=O)[O-])c2)cc1	?	2%
Cc1ccc(S(=O)(=O)N2CCCCC2CCNC(=O)C(=O)NCc2ccncc2)cc1 (centres undefined)	-4%	-20%
c1ccc(-n2cccc2CNC2CCCCC2)cc1	-19%	-12%
CCOC(=O)c1c(C)oc2c1c(C(c1cccnc1)N1CCCCC1)c(O)c1ccccc12 (centres undefined)	-12%	21%
CN(C(=O)c1ccccn1)c1nnc(-c2ccccn2)s1	-15%	-1%
Cc1ccc(/C=C2\CCC3=C2OC(N)=C(C#N)C3c2ccc(C)cc2)cc1 (centres undefined)	i	4%
O=S(=O)(c1ccc(Cl)s1)N1CCN(Cc2ccccc2)CC1	/	-6%
CCCNC(=O)CNC(=O)c1ccccc1OCC(=O)Nc1ccc(Br)cc1	-11%	-14%
CC(C)[C@H](Nc1ncnc2c1oc1ccccc12)C(=O)O	i	-5%
CN(C)c1ccc(S(=O)(=O)N(C)C)cc1[N+](=O)[O-]	-15%	9%
NC(N)=NCCCC(NC(=O)C(N)Cc1ccc(O)cc1)C(=O)O (centres undefined)	-14%	-10%
COc1ccc(CNC(=O)CN2C(=O)c3ccc([N+](=O)[O-])cc3C2=O)cc1	-10%	4%

The list continues.
SMILES	Vaccinia mCherry	VACV Venus inh
CC(=O)Nc1cccc2c1Cc1cc([N+](=O)[O-])ccc1-2	i	-11%
CC(C)Sc1ncnc2c1cnn2-c1ccccc1	-15%	-8%
Cc1cccc(C)c1NC(=O)NS(=O)(=O)c1ccccc1	-1%	0%
COc1cccc(NC(=O)C2CCCN(c3ncnc4onc(C)c34)C2)c1 (centres undefined)	-16%	-17%
CC(=O)O[C@H]1CC(=O)OC(C)(C)C2CC(=O)[C@]3(C)C(CC[C@@](C)([C@@H](O[C@@H]4O[C@H](CO)[C@@H](O)[C@H](O)[C@H]4O)c4ccoc4)[C@@]34O[C@@H]4C(=O)O)[C@]21C (some centres undefined)	5%	3%
CCOc1ccc2nc(SCC(=O)Nc3ccc4c(c3)OCO4)sc2c1	-28%	-20%
CCOc1ccccc1C(=O)Nc1cccc2ccc(C)nc12	-30%	-20%
COc1ccc(Cn2c(=O)[nH]c3cc(C(=O)NCc4ccc5c(c4)OCO5)ccc3c2=O)cc1	-11%	-10%
Cc1ccc(OCC(COCc2ccccc2)NC(C)C)cc1 (centres undefined)	-14%[7.34 µM]	-4%[7.34 µM]
CC1Cc2cc(-c3csc(N)n3)ccc2O1 (centres undefined)	?	?
CCN(CC(=O)Nc1c(F)cccc1F)C(=O)c1cccc(S(=O)(=O)N2CCc3ccccc3C2)c1	-2%	-27%
Cc1ccc(S(=O)(=O)NCCc2nnc3ccc(SCC(=O)Nc4ccc(F)cc4F)nn23)cc1	-7%	-15%
CCOC(=O)C1=C(CCc2ccccc2)NC(=O)NC1c1ccc2ccccc2c1 (centres undefined)	-7%	?
O=C(NCC1CCCO1)c1cnn2c1NC(c1ccccc1)CC2C(F)(F)F (centres undefined)	-13%	-12%
Cc1ccc(C)c(N2CCN(C3=C(c4ccccc4)C(=O)c4ccccc43)CC2)c1	-2%	6%
CC(Oc1ccccc1F)C(=O)N1CCC(c2nc3ccccc3o2)CC1 (centres undefined)	2%	-5%
O=C(O)CSc1nnc(-c2ccccc2)c(-c2ccccc2)n1	-10%	2%
O=P(Oc1ccccc1)(Oc1ccccc1)C(O)c1ccc(Cl)cc1 (centres undefined)	i	-11%
CCN(CC)S(=O)(=O)c1ccc(N2CCOCC2)c(NC(=O)Cc2ccccc2)c1	-8%	-5%
Cc1ncc(CN2CCC(n3nccc3NC(=O)c3ccccc3)CC2)s1	-3%	-16%
O=S(=O)(c1ccc(F)c(F)c1)N1CCN(Cc2ccc3c(c2)OCO3)CC1	/	-17%
CC(=O)Nc1ccc(NC(=O)c2c(-c3ccccc3)noc2C)cc1	-7%	-9%
Cc1ccc(N2C(=O)N(Cc3ccccc3C)c3ccccc3S2(=O)=O)cc1	-15%	-1%
CC(C)(C)OC(=O)N1CCN(C(=O)c2[nH]cnc2C(=O)NCC(=O)OCc2ccccc2)CC1	-19%	-9%
CCc1ccc(NC(=O)CSc2c(C)cnc3c2c(=O)n(C)c(=O)n3C)cc1	-16%	-11%

Single records, from the list above.
COc1cccc(NC(=O)C2CCCN(c3ncnc4onc(C)c34)C2)c1 (centres undefined) is listed with Vaccinia mCherry = -16%; VACV Venus inh = -17%
CC(=O)Nc1ccc(NC(=O)c2c(-c3ccccc3)noc2C)cc1 is listed with Vaccinia mCherry = -7%; VACV Venus inh = -9%

The results go on.
SMILES	Vaccinia mCherry	VACV Venus inh
COc1ccc(NC(=O)CSc2ccc3nnc(-c4cccnc4)n3n2)c(OC)c1	-8%	-5%
CCOc1ccc(-c2nc(S(=O)(=O)c3ccccc3)c(NC)o2)cc1	i	-9%
COc1cccc(C(=O)Nc2cccc(OCc3cc(=O)n4c5c(sc4n3)CCCC5)c2)c1	-1%	-12%
CCCS(=O)(=O)NC(=O)C1(C)CCN(C(=O)c2snnc2C)C1 (centres undefined)	9%	11%
Cc1ccc(F)cc1NC(=O)CCc1c(C)nn(-c2ccc(N3CCCC3)nn2)c1C	0%	-14%
Cc1cccn2c(=O)c3cc(C(=O)NCc4ccco4)c(=N)n(C4CCCCC4)c3nc12	-29%	-27%
O=C(c1ccccc1)c1cc(Cl)ccc1N1C(=O)C=CC1=O	-18%	?
C/C(=C\C(=O)c1ccccc1)NNc1nc2ccccc2s1	-7%	-7%
COc1ccc(-c2nc(SCC(=O)N3CCC(C)CC3)n[nH]2)cc1	-20%	-13%
COc1ccc(NC(=O)Cn2ncc3c([nH]c4ccccc43)c2=O)cc1Cl	9%	14%
CC(C)CC(=O)Nc1ccc2nc(SCC(=O)N3CCOCC3)sc2c1	-7%	-16%
CCN1CCN(C(=O)c2cnn(-c3ccc(F)cc3F)c2C2CCN(C(=O)OC(C)(C)C)CC2)CC1	-12%	-14%
C=C(C)COC(=O)c1ccccc1C(=O)OCC1(C)CO1 (centres undefined)	i	-8%
Nc1ncnc(NNC(=O)CNC(=O)c2c(F)cccc2Cl)c1[N+](=O)[O-]	-1%	2%
CC1CCCC(C)N1C(=O)COc1ccc(-c2nnco2)cc1 (centres undefined)	-11%	-10%
OCCC1CN(Cc2ccn[nH]2)CCN1Cc1ccc(F)c(F)c1 (centres undefined)	i	9%
CCOc1ccc(C(=O)c2cccs2)cc1	-2%	-7%
COc1ccc(CCNC(=O)c2ccc(=O)[nH]n2)cc1OC	/	3%
Cc1ccccc1NC(=O)COC(=O)/C=C/c1cn(-c2ccccc2)nc1-c1cccnc1	-14%	-6%
O=C(CNC(=O)c1ccc(Cl)cc1)NNc1c(F)c(F)cc(F)c1F	-11%	-4%
CCOc1ccc(S(=O)(=O)Nc2ccccc2C(=O)N2CCOCC2)cc1	-5%	-4%
COC(=O)[C@H]1C[C@@H]1[C@H](NP(=O)(c1ccccc1)c1ccccc1)c1ccccc1	i	-6%
Cc1ccc(CSc2nc3c(cc2C#N)CCC3)cc1	/	-6%
C=CCNC(=O)COC(=O)COc1ccc(Cl)cc1C	5%	13%
COc1ccc(N(CN2C(=O)C3CCCCC3C2=O)C(=O)c2ccco2)cc1 (centres undefined)	-9%	1%

5 of the compounds above, with values under each structure.
Every second line gives: Vaccinia mCherry	VACV Venus inh
COc1cc(=O)n2c(n1)SCCC2
 : /	-9%
O=C(Cn1c(=O)oc2ccccc21)NCC1COc2ccccc2O1 (centres undefined)
 : i	3%
CCOC(=O)c1ccccc1NC(=O)CSc1nnc(CC)n2c1cc1occc12
 : 5%	1%
Cc1ccccc1C1CC(=O)c2ccccc2C1C (centres undefined)
 : i	-14%
O=C(NCc1ccccc1Br)c1ccc(-n2cnc3cccnc32)cc1
 : -15%	-5%

(cont.)
SMILES	Vaccinia mCherry	VACV Venus inh
Cc1ccc(C2(C)NC(=O)N(CC(=O)NNC(=O)c3ccccc3F)C2=O)cc1 (centres undefined)	12%	-9%
CCn1c(SCC(=O)Nc2ccc3c(c2)OCCO3)nnc1-c1ccco1	-15%	-11%
Cc1ccc(SCCCn2cncn2)cc1	-14%	?
COc1ccc(N2CCN(C(CNC(=O)OCc3ccccc3)c3ccco3)CC2)cc1 (centres undefined)	-6%	-16%
C=CCSc1nnc2c(n1)OC(c1ccccn1)N(C(C)=O)c1ccccc1-2 (centres undefined)	/	-7%
C#CCNC(=O)c1ccc2sc([C@@H]3O[C@H](CO)[C@H](O)[C@H](O)[C@H]3O)nc2c1	15%	7%
COc1ccc2cc(Br)ccc2c1CC(=O)NC(C)C	-9%	-4%
O=C(Cc1cccs1)NCc1cccc(CNC(=O)Cc2cccs2)c1	-4%	-10%
CCn1cc(C(=O)NC2CCCCCC2)c(=O)c2cc(S(=O)(=O)N3CCCCC3)ccc21	-21%	-15%
O=Cc1nc(-c2ccccc2Cl)n2ccccc12	-19%	-7%
C=C(C)CNC(=S)/N=c1\scc(C)n1CC	?	?
CC1CN(S(=O)(=O)c2cccc(C(=O)NN3CCN(C)CC3)c2)CC(C)O1 (centres undefined)	-13%	-9%
COc1cc(C(=O)NC(CCSC)C(=O)OCc2cc([N+](=O)[O-])cc3c2OCOC3)cc(OC)c1OC (centres undefined)	-15%	-8%
O=C(CCl)Nc1c(C(=O)Nc2ccc3c(c2)OCCO3)oc2ccccc12	?	-7%
CCc1cc(=O)oc2cc(OCC(=O)N3CCC(C(=O)O)CC3)ccc12	1%	-1%
COc1cc(OC)cc(C(=O)N2CCC(C(=O)c3ccc(F)cc3)CC2)c1	0%	-10%
Cc1cn([C@H]2C[C@H](O)[C@@H](CCC(=O)NCCN3CCCCC3)O2)c(=O)[nH]c1=O	-8%	10%
COc1cc(C2Nc3cccc4cccc(c34)N2)cc(OC)c1O	-7%	-5%
COC(=O)CNC(=O)C(Cc1c[nH]c2ccccc12)NC(=O)OC(C)(C)C (centres undefined)	/	8%
Cc1nn(-c2ccccc2)c(Cl)c1C1C(C#N)=C(N)Oc2n[nH]c(C)c21 (centres undefined)	i	-16%
O=C(NC(=S)Nc1ccc(S(=O)(=O)N2CCCC2)cc1)C1CCC1	-22%	-6%
O=C(CN1CCN(c2ccc(F)cc2)CC1)NCc1cccs1	-7%	-13%
Cc1csc2c(N3CCN(C(=O)Nc4ccccc4)CC3)ncnc12	-24%	?
O=C(COC(=O)c1cc(=O)c2ccccc2o1)NCc1ccccc1	-8%	-2%
COc1ccc(-c2nc3nc(C)cc(Nc4ccc(C(C)=O)cc4)n3n2)cc1	?	-24%

Continued.
SMILES	Vaccinia mCherry	VACV Venus inh
O=C(O)c1cc([N+](=O)[O-])ccc1NCCc1ccccc1	1%	-1%
CCCOc1cccc(NC(=O)c2c(-c3ccccc3Cl)noc2C)c1	-20%	-23%
N/C(=N/OCc1cccc([N+](=O)[O-])c1)c1nonc1N	-7%	-13%
CC1(C)C(=O)Nc2ccccc2N1C(=O)COC(=O)Cc1c(F)cccc1Cl	-1%	-17%
CNC(=S)N1CCc2cc(OC)c(OC)cc2C1	i	-8%
Cc1noc(C)c1C(=O)Nc1sc2c(c1C(N)=O)CCC2	-20%	?
CC(=O)c1c(C)[nH]c(C(=O)OCC(=O)NC(C)c2ccccc2)c1C (centres undefined)	-18%	-18%
CCOC(=O)Cc1ccc(NC(=O)Nc2c[nH]c(=O)[nH]c2=O)cc1	7%	-1%
COc1cc(S(=O)(=O)N2CCN(C)CC2)c(OC)cc1Br	/	18%
CCOc1ccccc1C(=O)Nc1ccc(S(=O)(=O)N2CCCCC2c2cccnc2)cc1 (centres undefined)	-3%	-23%
CO[C@@H]1CN(C)C(=O)c2cc(NC(=O)C3CC3)ccc2OC[C@H](C)N(C(=O)CN2CCOCC2)C[C@@H]1C	-3%	2%
COc1cc(CNCc2ccccn2)ccc1OCC(=O)NC(C)(C)C	i	-10%
O=C(CSc1ccccc1C(=O)O)c1ccc(Cl)cc1	-12%	-7%

Entries shown so far containing a cyano group:
SMILES	Vaccinia mCherry	VACV Venus inh
Cc1ccc(/C=C2\CCC3=C2OC(N)=C(C#N)C3c2ccc(C)cc2)cc1 (centres undefined)	i	4%
Cc1ccc(CSc2nc3c(cc2C#N)CCC3)cc1	/	-6%
Cc1nn(-c2ccccc2)c(Cl)c1C1C(C#N)=C(N)Oc2n[nH]c(C)c21 (centres undefined)	i	-16%
